Screening results (PubChem BioAssay)
LANA-nucl inh: LANA-nucleosome interaction inhibition | FITC-LANA1-23 / chicken nucleosome fluorescence polarization; stronger effect = lower value | z-score (test concentration not listed) | 51,000 tested, 0.3% active | AID 720717;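 active = both repeat wells score below -2 in polarization z-score versus plate sample wells, excluding overly bright wells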;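 note: 100 nL library stock added to about 30 µL; numbers are from one replicate; some results filed as inactive read as strong as hits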
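test system = FITC-LANA peptide and chicken nucleosomes | amount = 240 nM purified chicken nucleosomes (480 nM peptide binding sites), final | reagent = 50 nM FITC-LANA1-23 probe | medium = TEN-BT buffer, pH 7.5 | doses = single compound addition by pin transfer, 100 nL per well | timing = 10–45 min, room temperature | detection = fluorescence polarization | repeats = duplicate plates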
Ab BasE inh: inhibitors of Acinetobacter baumannii siderophore enzyme BasE | purified BasE, fluorescence polarization binding displacement | 84,000 tested, 0.1% active | inhibition, % (concentration not given with the values);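 active = both replicates above 25% with normal brightness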;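 note: 0% = negative plate control signal and 100% = positive plate control signal; stock transfer was 100 nL into about 30 µL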
An asterisk follows results filed as active; . = no result given; & = joins results of further samples. Some of the compounds tested. The share of hits here may be higher or lower than overall.

SMILES	LANA-nucl inh	Ab BasE inh
Cc1cc(-c2nc(-c3ccc(C(F)(F)F)cc3)no2)no1	0.85	-0.1
CCN1CCN(Cc2ccc(NC(=O)c3cn(-c4cccc(OC)c4)c(=O)c4ccccc34)cc2)CC1	-0.39	0.7
Cc1ccc(Cl)cc1N1CCN(C(=O)CCN2C(=S)NC(C)(C)CC2C)CC1 (configuration not stated)	0.019	2.5
CC(C)(C)c1ccc(C(=O)Nc2ccc(NC(=O)c3ccccc3F)cc2)cc1	.	4.8
Cc1nn(C)c(Cl)c1S(=O)(=O)N(C)C	-0.49	.
CC(OC(=O)c1ccccc1OC(F)F)C(N)=O (configuration not stated)	.	2.0
Cc1nc(COC(=O)[C@H](C(C)C)N2C(=O)c3ccccc3C2=O)cs1	.	-0.2
CN(C)c1ccc(/C=c2\sc3nc4ccccc4n3c2=O)cc1	-0.23	0.7
CCN1CCC(N(C)CCc2ccccc2)CC1	1.8	-4.4
CCc1ccc2nc(Cl)sc2c1	0.084	1.4
CCC(C(=O)Nc1ccc(C(=O)N(C)C)cc1)c1ccccc1 (configuration not stated)	.	-4.9
CCOC(=O)C(C)N1C(=O)S/C(=C/c2ccc(-c3ccccc3C(=O)O)o2)C1=O (configuration not stated)	.	0.8
CN(CCC#N)C(=O)c1cc2c(s1)-c1ccccc1OC2	-0.64	-0.9
COc1cc(OC)cc(C(=O)NCC(=O)NCc2ccccn2)c1	.	3.1
O=C1Nc2ccccc2O/C1=C\c1ccc(C(=O)N2CCN(c3ccccn3)CC2)cc1	0.26	-1.3
C=CCN1C(=O)/C(=C/c2ccco2)S/C1=N/S(=O)(=O)c1ccccc1	-0.96	0.2
CCOC(=O)Nc1ccc2c(COC(=O)c3cccc(OCc4c(C)noc4C)c3)cc(=O)oc2c1	.	2.1
Nc1nc(CCC(=O)O)nc(Nc2ccccc2)n1	.	0.7
CCOc1ccc(S(=O)(=O)N2CCN(C(=O)c3cc(S(=O)(=O)N4CCOCC4)ccc3C)CC2)cc1	.	1.5
CN(CC(=O)Nc1ncn[nH]1)S(=O)(=O)c1ccc(Cl)cc1	-0.47	4.7
CCCCc1ccc2nc(NC(=O)OC)[nH]c2c1	0.061	-1.8
COC1=CC(=C2C=CC(=[N+](C)C)C=C2)Oc2ccccc21	.	2.5
COC(=O)c1ccccc1NC(=O)CSc1nnnn1-c1ccc2c(c1)OCO2	1.2	0.4
CC(=O)N1CCCc2cc(S(=O)(=O)CCC(=O)O)ccc21	-1.2	1.1
CN1CCN(S(=O)(=O)c2ccc(SCC(=O)c3c[nH]c4ccccc34)nc2)CC1	.	-39

The list continues:
SMILES	LANA-nucl inh	Ab BasE inh
CCOC(=O)Cn1cnc2c(oc3ccccc32)c1=O	-1	-0.1
Cc1ccc(OC(=O)CN2C(=O)c3ccccc3C2=O)cc1C	-1	-0.4
CCN(CC(=O)NC1CCS(=O)(=O)C1)C(=O)c1cc2ccccc2o1 (configuration not stated)	.	1.3
COC(=O)C1(C(=O)OC)C2C3C4CC5C6C4C2C6C1C53 (configuration not stated)	.	-0.6
C/C(=N\NC(N)=O)C1(C)CC2(CC(C)(C)OC2=O)C(=O)O1 (configuration not stated)	-0.26	2.7
COc1ccc(N=c2scc(-c3ccc(O)c(C(N)=O)c3)n2CC2CCCO2)cc1 (configuration not stated)	.	1.9
CC(C)S(=O)(=O)c1csc(C(=O)OCC(=O)C(C)(C)C)c1N	2.4	-1.9
Cc1cccc(C(=O)N2CCN(c3ccc(N4CCCCCC4)nn3)CC2)c1	0.61	-0.4
N#CC1=C(N)OC(C2CC2)=C(C#N)C1c1ccccc1Cl (configuration not stated)	.	-0.1
C=CCNC(=S)Nc1ccn(Cc2ccccc2C)n1	-0.57	0.2
Cc1ccc(NC(=S)NC(C)(C)C)c(C)c1	.	-1.3
COc1ccc(CCNC(=O)COc2ccc3c(=O)c(-c4ccccc4)coc3c2)cc1OC	.	0.4
CCOC(=O)c1nc(NNC(C)=O)sc1C	0.49	2.4
OCCNC(=S)Nc1ccccc1	0.25	1.7&1.8
NC(=O)C1CCN(CC(=O)N2c3ccccc3CCc3ccccc32)CC1	0.98	-1.9
CCC(=O)Nc1ccc(N2CCCCC2)cc1	-0.74	0.1
COc1ccc(CN2CCN(C(=O)C3CCN(S(=O)(=O)c4cnc[nH]4)CC3)CC2)c(OC)c1OC	0.14	2.0
COc1cc(S(=O)(=O)N2CCOCC2)cc(C(=O)OCC(=O)N2CCCc3ccccc32)c1OC	.	0.1
NNC(=O)CNC(=O)c1ccccc1	.	2.3
CC1CCCC(C)N1C(=O)CN1CCC(N2CCCCC2)CC1 (configuration not stated)	0.41	0.8
CNC(=O)N1CCn2cccc2C1C(C)C (configuration not stated)	0.58	-0.5
O=C(NCC1CN(Cc2ccccc2)CCO1)c1ccc(N2CCOCC2)nc1 (configuration not stated)	.	0.1
CON(C)S(=O)(=O)c1ccc(N=Cc2c(O)[nH]c(=O)[nH]c2=O)cc1	.	2.0
CN1CCC(N(C)S(=O)(=O)c2ccc(F)cc2F)CC1	.	2.5
Cc1oc(-c2ccc(Cl)cc2)nc1CN1CCCC(C(=O)NC2CC2)C1 (configuration not stated)	-0.11	0.0

(more compounds)
SMILES	LANA-nucl inh	Ab BasE inh
Nn1c(Cc2cccs2)nc2ccccc2c1=O	-1.1	-0.8
CC1SCC(=O)N(c2cccc(C(F)(F)F)c2)C1=O (configuration not stated)	-0.81	.
CC(C)Cn1cc(NC(=O)NCC2CCCO2)c2ccccc2c1=O (configuration not stated)	.	-0.8
COc1cc(Cl)c(C)cc1NC(=O)CN1C(=O)C2CC=CCC2C1=O (configuration not stated)	.	2.1
O=C(O)COCC(=O)NC1CCN(Cc2c(F)cccc2Cl)CC1	.	2.9
CC(Sc1nc(N)cc(=O)[nH]1)C(=O)NCC(=O)Nc1ccc(F)c(F)c1F (configuration not stated)	.	0.0
S=C1Nc2ccccc2C2CC=NN12 (configuration not stated)	.	-2.6
S=C(Nc1ccc(Cl)cc1Cl)NC(Cn1ccnc1)c1ccccc1 (configuration not stated)	.	4.5
COc1ccccc1CNC(=S)N(C)C	.	1.8
CSc1nnc(CSc2ncccn2)n1C	-0.37	3.1
CCOC(=O)COc1ccc(C23CC4CC(CC(C4)C2)C3)cc1	.	-3.3
CC(C)N1C(=O)S/C(=C/c2cccnc2)C1=O	-0.81	-0.2
CCCN1C(=O)/C(=C/c2ccc(O)c(OC)c2)SC1=S	1.4	0.9
N#Cc1ccccc1NC(=O)c1coc2ccccc2c1=O	1.2	0.7
Oc1c(Cl)cc(Cl)cc1C1Nc2cc(C(F)(F)F)ccc2-n2cccc21 (configuration not stated)	.	2.9
O=C(CSc1nc2ccccc2[nH]1)N(c1ccccn1)c1ccccn1	.	4.8
O=C(NCC1CCCO1)c1ccccn1 (configuration not stated)	0.26	-2.6
OCCOc1nc(N2CCOCC2)nc(N2CCOCC2)n1	0.58	-0.4
O=C(CSc1nc(-c2ccccc2)cc(=O)[nH]1)c1ccccc1	-0.14	-0.8
CC(=O)N1Cc2ccccc2C(C)CC12CCCC2 (configuration not stated)	0.57	-2.0
CCOC(=O)c1c(NC(=O)C(C)Sc2nncn2C)sc2c1CCCC2 (configuration not stated)	.	0.7
CC(=O)O/N=C(\N)c1ncon1	-0.15	-2.4
c1csc(-c2noc(CSc3ccc4ccccc4c3)n2)c1	.	2.6
Cc1onc(-c2ccccc2Cl)c1C(=O)C(C#N)c1ccccn1 (configuration not stated)	.	-0.9
Cc1[nH]c(-c2ccc(F)cc2)cc1C(=O)N1CCCC(C)C1 (configuration not stated)	-0.2	-0.7

Carrying on:
SMILES	LANA-nucl inh	Ab BasE inh
COc1ccccc1C(=O)NCCCn1cc(Br)c(C)n1	-0.02	4.2
CCN1CCN(c2ccc(NC(=O)[C@H](Cc3ccccc3)N3Cc4ccccc4C3=O)cc2)CC1	-0.67	-1.3
CC(C(=O)N1CCOCC1)C1SC(=O)NC1=O (configuration not stated)	-0.85	1.6
COc1cccc(/C=N/NC=O)c1	.	4.0
O=C1OC(c2ccccc2)OC(=O)C1=Cc1cccs1 (configuration not stated)	.	2.7
COCC(C)NC(=O)NC1CC(=O)N(c2ccc(F)cc2)C1 (configuration not stated)	-1.3	1.0
CCN(CC)S(=O)(=O)c1ccc(N(C)Cc2ccc(C(F)(F)F)cc2)nc1	.	-1.5
O=C1NCCCCC1NS(=O)(=O)c1ccc(-c2ccccn2)s1 (configuration not stated)	-0.61	-0.9
Nc1n[nH]c(N)c1N=Nc1ccc(Cl)cc1	0.59	6.5
O=C(Nc1cccs1)N1CCN(C(=O)C2CCCO2)CC1 (configuration not stated)	.	2.2
CC(O)C(=O)NS(=O)(=O)c1ccccc1 (configuration not stated)	-1.1	-1.4
CCCN(CCC)CCc1cccc2c1CC(=O)N2	0.19	.
O=C(COC(=O)C1CC(=O)N(CCc2ccccc2)C1)Nc1cccnc1Cl (configuration not stated)	.	2.6
Cc1ccccc1NC(=O)CNc1ccccc1N1CCCCC1	.	-0.7
COC(=O)c1c(N)n(CCc2ccccc2)c2nc3ccccc3nc12	.	-1.4
O=C(CSc1nc2ccccc2c(=O)n1C1CCCCC1)NCc1ccco1	-0.44	-0.3
c1ccc(-n2nnnc2N2CCCC2c2ccc3c(c2)OCCO3)cc1 (configuration not stated)	.	0.6
CCCCS(=O)(=O)N1CCN(C(=S)c2ccc(OC)cc2)CC1	-0.47	0.8
CCNS(=O)(=O)c1ccc(NC(=O)C2CC(=O)N(C(C)(C)C)C2)cc1 (configuration not stated)	1.3	-0.4
COC(=O)c1cccc2c1-c1ccccc1/C2=N\NC(N)=O	0.082	-0.9
CCOC(=O)c1[nH]c(COc2ccc(C#N)cc2)c(C(=O)OCC)c1C	.	0.6
O=C(Nc1nnc(C2=COCCO2)o1)c1cccc2ccccc12	0.56	-1.8
c1ccc(NCc2cccs2)nc1	-0.62	2.2
CC(C)N(c1ccccc1)c1ccc(NC(=O)c2ccccn2)cc1	.	2.4
O=C(/C=C/c1ccco1)Nc1ccc(Br)cc1	-0.03	-5.8

Next section.
SMILES	LANA-nucl inh	Ab BasE inh
COC(=O)CSC1=C(C#N)C(c2ccc(C(C)C)cc2)CC(=O)N1 (configuration not stated)	0.48	-2.1
CCc1cc2c(=O)c(-c3nc(C)cs3)c(CCC(=O)O)oc2cc1O	-0.32	3.1
OC(CNCc1ccccn1)COc1ccc(OCC(O)CNCc2ccccn2)cc1 (configuration not stated)	1.1	2.0
Cc1ccc2c(c1)-c1c(ssc1=Nc1ccc(S(N)(=O)=O)cc1)C(C)(C)N2	.	1.2
CCCCNc1ncnc2c1nc1n2CCCCC1	-0.34	-0.3
CS/C(N)=N\N=C\c1ccccc1O	0.71	-2.2
CNC(=O)c1ccccc1NCC(=O)O	0.73	0.6
C=CCN(CC(N)=O)S(=O)(=O)c1ccccc1C(F)(F)F	.	0.7
NC(=O)CNC(=O)c1ccc(Oc2ccccc2)cc1	.	-1.1
CCC1CCCCN1C(=S)NC(=O)c1ccccc1 (configuration not stated)	-0.23	4.4
COc1ccc(-c2oc3ncn(CC(C)C)c(=N)c3c2-c2ccc(OC)cc2)cc1	.	-1.4
COc1ccc(-c2noc(N3CCCC(C(=O)NC4CCCc5ccccc54)C3)n2)cc1 (configuration not stated)	0.94	0.6
CCn1nnc2cc(C(=O)Nc3ccccc3C(=O)NC3CCCC3)ccc21	.	-3.2
C/C(Cn1nnc2ccccc21)=N\NC(=O)c1ccc(Br)cc1	0.53	-1.6
Cc1ccc(C)c(CNc2ccc3[nH]ncc3c2)c1	-0.75	50

For reference, some entries already given:
SMILES	LANA-nucl inh	Ab BasE inh
CCNS(=O)(=O)c1ccc(NC(=O)C2CC(=O)N(C(C)(C)C)C2)cc1 (configuration not stated)	1.3	-0.4
COC(=O)c1cccc2c1-c1ccccc1/C2=N\NC(N)=O	0.082	-0.9
CCOC(=O)c1[nH]c(COc2ccc(C#N)cc2)c(C(=O)OCC)c1C	.	0.6
O=C(Nc1nnc(C2=COCCO2)o1)c1cccc2ccccc12	0.56	-1.8
c1ccc(NCc2cccs2)nc1	-0.62	2.2
CC(C)N(c1ccccc1)c1ccc(NC(=O)c2ccccn2)cc1	.	2.4
O=C(/C=C/c1ccco1)Nc1ccc(Br)cc1	-0.03	-5.8
COC(=O)CSC1=C(C#N)C(c2ccc(C(C)C)cc2)CC(=O)N1 (configuration not stated)	0.48	-2.1
CCc1cc2c(=O)c(-c3nc(C)cs3)c(CCC(=O)O)oc2cc1O	-0.32	3.1
OC(CNCc1ccccn1)COc1ccc(OCC(O)CNCc2ccccn2)cc1 (configuration not stated)	1.1	2.0
Cc1ccc2c(c1)-c1c(ssc1=Nc1ccc(S(N)(=O)=O)cc1)C(C)(C)N2	.	1.2
CCCCNc1ncnc2c1nc1n2CCCCC1	-0.34	-0.3
CS/C(N)=N\N=C\c1ccccc1O	0.71	-2.2
CNC(=O)c1ccccc1NCC(=O)O	0.73	0.6
C=CCN(CC(N)=O)S(=O)(=O)c1ccccc1C(F)(F)F	.	0.7
NC(=O)CNC(=O)c1ccc(Oc2ccccc2)cc1	.	-1.1
CCC1CCCCN1C(=S)NC(=O)c1ccccc1 (configuration not stated)	-0.23	4.4
COc1ccc(-c2oc3ncn(CC(C)C)c(=N)c3c2-c2ccc(OC)cc2)cc1	.	-1.4
COc1ccc(-c2noc(N3CCCC(C(=O)NC4CCCc5ccccc54)C3)n2)cc1 (configuration not stated)	0.94	0.6
CCn1nnc2cc(C(=O)Nc3ccccc3C(=O)NC3CCCC3)ccc21	.	-3.2
C/C(Cn1nnc2ccccc21)=N\NC(=O)c1ccc(Br)cc1	0.53	-1.6
Cc1ccc(C)c(CNc2ccc3[nH]ncc3c2)c1	-0.75	50

Single records (already shown):
Listed for `C=CCN(CC(N)=O)S(=O)(=O)c1ccccc1C(F)(F)F` = LANA-nucl inh: .; Ab BasE inh: 0.7
Listed for `CCn1nnc2cc(C(=O)Nc3ccccc3C(=O)NC3CCCC3)ccc21` = LANA-nucl inh: .; Ab BasE inh: -3.2
